Screens: PubChem BioAssay, National Center for Advancing Translational Sciences (NCATS)
Vaccinia Venus = inhibitors of vaccinia virus (Venus reporter); Vaccinia virus Venus reporter expression, fluorescence; Potency, µM (highest dose often 36.5 µM), inactives show at the highest dose activity change, negative = inhibition, usual class: inhibitors; 0.46% of 330,000 active; AID 720580; active means well fitted inhibition curve with a large enough effect; inconclusive means small, poorly fitted or top-dose-only effect; inactive means no such curve, though single readings can be large or run the other way; tested in A549 cells; note: nearly all actives have a fitted effect of over 30% in size; inactives centre near -10
Vaccinia mCherry = inhibitors of vaccinia virus infection (mCherry reporter signal) | AID 720579 | Potency, µM (highest dose often 36.5 µM), for the others: at the top dose activity change, negative = inhibition, most hits filed as inhibitors | 0.63% of 310,000 active | Vaccinia virus mCherry reporter infection, fluorescence; about a quarter of the inactives have no number; active = well fitted inhibition curve with a large enough effect; inconclusive = small, poorly fitted or top-dose-only effect; inactive = no such curve, though single readings can be large or run the other way; tested in A549 cells; note: nearly all actives have a fitted effect of over 35% in size; inactives centre near -10
The depositor's hits bear a star; i = inactive; ? = inconclusive; . = not tested or not shown; & = joins results of further samples. % is set by controls: 0 for no effect and ±100 for the full control effect; potency is the fitted concentration of half-maximal effect.

structure | Vaccinia Venus | Vaccinia mCherry
CC(Oc1ccccc1Br)C(=O)N1CCc2ccccc21 (centres undefined) | -4% | .
O=C(NC1CCCC1)c1ccc(Cn2c(=O)[nH]c3ccsc3c2=O)cc1 | -3% | -10%
NNC(=O)Cn1c(COc2ccc(Cl)cc2)nc2ccccc21 | -10% | -20%
Cc1oc2cc3oc(=O)c(CCC(=O)NCCCN4CCCC4=O)c(C)c3cc2c1C | 7% | 12%
O=c1[nH]c2cccnc2n1-c1cccc([N+](=O)[O-])c1 | -8% | -21%
COc1ccc(CNc2nc(C)c([N+](=O)[O-])c(C)c2C#N)cc1 | -11% | i
CCc1nn2c(N)c(/C=C3\C=Nc4ccccc43)c(=O)nc2s1 | -17%&-11% | -14%
CCOc1ccccc1C(C(=O)NC1CCCC1)N(C(=O)c1csnn1)C1CC1 (centres undefined) | 1% | -2%
COc1ccc(C(=Cc2cc(OC)c(OC)cc2[N+](=O)[O-])C(=O)O)cc1 | -9% | -16%
CC(C)[C@H](NS(=O)(=O)c1ccccc1F)C(=O)OCC(=O)Nc1cccc(S(N)(=O)=O)c1 | -1% | -16%
CCOc1ccccc1NC(=O)CSc1ccc2nc(-c3ccccc3)cn2n1 | -21% | -21%
CCN1C(=O)c2ccccc2S(=O)(=O)c2ccc(C(=O)NC(C)C)cc21 | -7% | -5%
CCCCOc1ccc(C(=O)Nc2cc(-c3ccc(C)cc3)no2)cc1 | -14% | -12%
CCOc1ccc(C(=O)N(Cc2sccc2C)C2CCS(=O)(=O)C2)cc1 (centres undefined) | -9% | -17%
CC(C)(C)C(=O)NC(=S)Nc1ccc(F)cc1 | -11% | i
CCCc1ccc(-c2cc(C(=O)NC3=NCCS3)c3ccccc3n2)cc1 | -22% | -13%
NC(=O)CCn1ccc2ccccc21 | -8% | i
Cc1cc(C)c(NC(=O)COC(=O)CSc2ccc(Br)cc2C)c(C)c1 | -12% | -2%
Cc1cc(SCC(=O)c2ccc(O)c(O)c2)nc2ccccc12 | -17% | -23%
CCN(C(=O)CSc1cc(C)c2ccccc2n1)C1CCS(=O)(=O)C1 (centres undefined) | -6% | -14%
O=C(O)C1CCCCC1C(=O)NCCCc1ccccc1 (centres undefined) | -6% | -4%
CC(C)CCCC(C)C1CCC2C3C(=O)C=C4CC(O)CC[C@@]4(C)C3CC[C@@]12C (some centres undefined) | 0% | i
Nc1nc(Cl)nc2ncn(Cc3ccccc3)c12 | -7% | -15%
C#CCOCCOCCOCCNc1nc(N2CCN(C(=O)CCCCCCCCCCNC(=O)[C@@H](CCSC)n3cc(CCO)nn3)CC2)nc(N2CCN(C(=O)CCCCCCCCCCNC(=O)[C@H](CCSC)n3cc(CCO)nn3)CC2)n1 | ? | -10%
Cc1csc(NC(=O)c2cccc(C)c2C)n1 | -21% | .
CSc1ccccc1OCc1cc(C(=O)N(C)Cc2ccc(C)o2)no1 | -8% | -24%
O=C(C1CCN(S(=O)(=O)c2cccc3cccnc23)CC1)N1CCc2ccccc21 | -17% | -17%
Cc1ccc(N(C(C)C(=O)N2CCC(C)CC2)S(C)(=O)=O)cc1C (centres undefined) | -10% | -4%
O=C(NNS(=O)(=O)c1ccccc1Cl)c1nn(-c2ccc(F)cc2)ccc1=O | -18% | -14%
C[C@H](CO)N1C[C@H](C)[C@@H](CN(C)Cc2ccc(Cl)c(Cl)c2)OCc2cnnn2CCCC1=O | -12% | -19%
CN(c1ccc(C(=O)Nc2ccc3c(c2)OCCO3)cc1)S(C)(=O)=O | -13% | i
Cc1ccc(-n2ncc3c(NCCC4=CCCCC4)ncnc32)cc1C | -15% | -14%
O=[N+]([O-])c1cccc(-c2nnc3ccc4ccccc4n23)c1 | -7% | -8%
CC1(C)NC(=O)N(CC(=O)N2CCCC(C(F)(F)F)C2)C1=O (centres undefined) | -5% | -9%
CC[C@@]1(O)C(=O)OCc2c1cc1n(c2=O)Cc2cc3c(N)cccc3nc2-1 | ? | ?
Cc1c(C(=O)N2CCc3ccccc32)cnn1C | -1% | -14%
CCn1cc([N+](=O)[O-])c(C(=O)Nc2nc(-c3ccc(C)cc3)c(C)s2)n1 | -20% | -24%
CCNC(=O)CCSc1nnc(-c2ccco2)o1 | -12% | -8%
CN(Cc1cc(Cl)cc(Cl)c1)CC(C(=O)c1ccccc1)c1ccccc1 (centres undefined) | -18% | -18%
COc1ccc(-c2nc(SC(CC(=O)NCCO)c3cccs3)n[nH]2)cc1 (centres undefined) | -6% | i

Some of these compounds in order of count of non-hydrogen atoms, falling:
structure | Vaccinia Venus | Vaccinia mCherry
C[C@H](CO)N1C[C@H](C)[C@@H](CN(C)Cc2ccc(Cl)c(Cl)c2)OCc2cnnn2CCCC1=O | -12% | -19%
CCOc1ccccc1NC(=O)CSc1ccc2nc(-c3ccccc3)cn2n1 | -21% | -21%
Cc1cc(C)c(NC(=O)COC(=O)CSc2ccc(Br)cc2C)c(C)c1 | -12% | -2%
Cc1c(C(=O)N2CCc3ccccc32)cnn1C | -1% | -14%

Reformatted field by field: 2 of the compounds above.
Molecule: CN(Cc1cc(Cl)cc(Cl)c1)CC(C(=O)c1ccccc1)c1ccccc1 (centres undefined)
  Vaccinia Venus = -18% | Vaccinia mCherry = -18%
Molecule: COc1ccc(-c2nc(SC(CC(=O)NCCO)c3cccs3)n[nH]2)cc1 (centres undefined)
  Vaccinia Venus = -6% | Vaccinia mCherry = i

Other compounds:
structure | Vaccinia Venus | Vaccinia mCherry
CC(C)C(C(=O)NCc1ccco1)N(Cc1ccco1)C(=O)CNS(=O)(=O)c1ccc(F)cc1 (centres undefined) | -11% | -12%
CCOc1ccc(CCNC(=O)c2cc(C)nc3c2c(C)nn3-c2cccc(F)c2)cc1 | -21% | -14%
O=C(O)c1ccccc1-c1ccccc1C(=O)Nc1ccc2oc(=O)c3ccccc3c2c1 | -6% | i
CC(=O)/C(=N\Nc1ccccc1)Sc1nnc(-c2ccccc2)n1-c1ccccc1 | -2% | -13%
CC(C)Oc1cccc(C(=O)Nc2nnc([C@H]3C[C@H](O)[C@@H](CO)O3)s2)c1 | -4% | 1%
C/C(CC(=O)NCc1ccco1)=N\NC(=O)Cc1cccc2ccccc12 | -10% | .
CCN(CC(=O)NCCc1ccc(S(N)(=O)=O)cc1)Cc1nc2cc(OC)c(OC)cc2c(=O)[nH]1 | -6% | .
O=C(OCc1c(Cl)cccc1Cl)c1ccncc1 | -5% | i
COc1ccc(Cl)cc1NC(=O)C1CCN(S(C)(=O)=O)CC1 | -4% | -14%
COCCn1c(NCc2ccco2)nc2c1c(=O)[nH]c(=O)n2C | 1% | -14%
O=C(O)c1ccc2c(c1)S(=O)(=O)c1cc(Cl)ccc1C2=O | -4% | -9%
CCCS(=O)(=O)c1nc(S(=O)(=O)c2ccc(C)cc2)c(NCCCOC(C)C)s1 | -21% | -1%
CCCN1Cc2cccc(C(=O)N3CCN(c4ccccc4)CC3)c2C1=O | ? | -15%
Cc1cccc(Nc2ncnc3nc[nH]c23)c1 | -20% | ?
O=c1[nH]c(CSc2nnnn2-c2ccc(Cl)cc2)nc2ccccc12 | -10% | -15%
COc1ccc(-n2nnc3c(=O)n(CC(=O)N4CCCc5ccccc54)cnc32)cc1 | -13% | -8%
COc1cc(C2c3cc4c(cc3OC(N3CCCC3)C2C)OCO4)cc(OC)c1O (centres undefined) | -29% | i
CCC(=O)Nc1ccc(C(=O)NNC(=O)c2cc([N+](=O)[O-])cc([N+](=O)[O-])c2)cc1 | -10% | -28%
Cc1cccc(N(Cc2ccccc2)C(=O)Cc2ccc(S(=O)(=O)N3CCOCC3)s2)c1 | -19% | -8%
N#CC1(NC(=O)COC(=O)c2ccccc2SCC(=O)N2CCCC2)CCCCC1 | -15% | i
Cc1cc2c(cc1S(=O)(=O)CCC(=O)NC1CCCCC1C)OCC(=O)N2 (centres undefined) | -10% | -15%
CCn1c(SCC(=O)NC2(C#N)CCCCC2)nc2ccccc2c1=O | -6% | -12%
CSc1cccc(NC(=O)CN2C(=O)COc3ccc(Cl)cc32)c1 | -22% | ?
Cc1cccc(-n2c(-c3ccco3)nc3c(cnn3-c3ccc(F)cc3)c2=O)c1 | -7% | -25%
COc1ccc(S(=O)(=O)NCC(c2ccco2)S(=O)(=O)c2cccs2)cc1F (centres undefined) | -16% | -11%
Cn1c(=O)[nH]c(=O)c2c1nc(N/N=C/c1ccncc1)n2Cc1ccc(F)cc1 | -6% | -5%
CCOC(=O)CCSc1nc(C)c2cc(OC)ccc2n1 | -16% | i
O=C(NCc1ccc(F)cc1)C1CCN(S(=O)(=O)c2ccc(Cl)cc2)CC1 | -23% | -23%
CCOc1cc(CNCCSc2nnnn2C)cc(Br)c1OCc1ccc(F)cc1 | -25% | -12%
O=C(NC(=O)c1cc([N+](=O)[O-])ccc1Cl)C1=C(N2CCCC2)COC1=O | -23% | ?
C=CCn1c(SCC(=O)NC2CCCC2)nc2sc(C)cc2c1=O | -2% | -6%
Cc1ccc(S(=O)(=O)N2CCN(c3ccccc3)CC2)cc1C(N)=O | -3% | i
CCOc1ccc(Cl)cc1/C=C1/C(=O)ON=C1C | -2% | i
Cn1c2ccccc2c2nnc(SCC(=O)NCc3ccoc3)nc21 | 3% | 1%
O=C(Cn1cnc2ccccc2c1=O)N1CCN(Cc2ccccc2)CC1 | -12% | -15%
COc1cc(CNCCc2c[nH]c3ccccc23)ccc1OCc1ccccc1F | ? | ?
C=CCc1ccc(O)c(-c2cc(CC=C)ccc2O)c1 | -11% | i
Cc1cc(OCC(=O)NCCO)cc(C)c1Cl | -6% | -21%
Cn1nnnc1SC1CC(=O)N(c2ccccc2)C1=O (centres undefined) | 4% | i
c1ccc2c(c1)nc1n2CCN1CCNC1CCCCC1 | -11% | .
COCCn1c(SCC(=O)Nc2cccc(OC)c2)nnc1-c1ccc(Cl)cc1 | -9% | -14%
CCN(CC)C(=O)C1=C(C)N(CCCN2CCCC2=O)C(=O)C(CC(=O)NCc2cccs2)C1 (centres undefined) | -4% | i
Cc1onc(-c2c(Cl)cccc2Cl)c1C(=O)Nc1ccc(Cl)cn1 | -9% | i
CCCN(CCC)S(=O)(=O)c1ccc(C(=O)Nc2cccc(-c3nc4ccccc4[nH]3)c2)cc1 | -21% | -18%
CCCCNC(=O)O[C@H]1C[C@@H]2CCN3C(=O)CCC[C@H]([C@H]1CC)[C@H]23 | -7% | i
Cc1cc(C)cc(NC(=O)c2ccccc2NC(=O)CCC(=O)O)c1 | 9% | -9%
O=C(c1ccc(F)cc1)C1CCN(C(=S)Nc2ccccc2)CC1 | -6% | -8%
CCCS(=O)(=O)c1c(S(=O)(=O)CCC)c2cc(CC)ccn2c1C(=O)c1ccc(Cl)cc1 | -10% | -16%
O=C(Cc1cccc(NC(=O)C2CCCN(C(=O)C3CCC3)C2)c1)Nc1cccc(C(=O)N2CCCCC2)c1 (centres undefined) | -8% | i
Cc1ccccc1NC(=O)c1ccc(S(=O)(=O)N(C)C)cc1 | -16% | -2%
Cc1ccc(S(=O)(=O)c2nc(-c3cccs3)oc2NCc2cccnc2)cc1 | -16% | -30%
Cc1cccc(Cn2c(=O)c3c(nc4n3CCN4Cc3ccco3)n(C)c2=O)c1 | -19% | -12%
COC(=O)[C@@]1(Sc2ccc(C)cc2)CC(=O)N(c2ccccc2)[C@@H]1c1ccccc1 | -2% | -4%
CCc1nc(SCCO)c2oc3ccccc3c2n1 | ? | .
COCCNC(=O)c1ccc(N2CCC3(CC2)OCCO3)c([N+](=O)[O-])c1 | -9% | i
CCN(CC(=O)Nc1ccc2c(c1)OCCO2)C(=O)/C=C/c1ccc(F)cc1 | 3% | i

(continued)
structure | Vaccinia Venus | Vaccinia mCherry
Cc1nn(C)c(C)c1S(=O)(=O)N(CC(=O)Nc1nccs1)c1ccc(C(C)C)cc1 | -15% | -1%
Cc1cccc(-n2[nH]c3c4c(ccc3c2=O)C(=O)c2ccccc2C4=O)c1 | -5% | -15%
COc1ccc2oc3cc(C)[n+]([O-])c(-c4ccc(Cl)cc4)c3c2c1 | -12% | i
Cc1ccc(C2=CC(c3ccc(N(C)C)cc3)n3nnnc3N2)cc1 (centres undefined) | -15% | ?
COc1cc(NC(=O)c2cccs2)c(OC)cc1NC(=O)Nc1ccc(F)cc1 | -19% | ?
CN(C)c1cccc(C(=O)NCC(c2ccco2)N(C)C)c1 (centres undefined) | 1% | -6%
C=C1CCC(O)C/C1=C/C=C1\CCC[C@@]2(C)C(C(C)/C=C/C(C)C(C)C)CC[C@@H]12 (some centres undefined) | -2% | -14%

Entries of single compounds as entered above. Order of values: Vaccinia Venus, Vaccinia mCherry
Record of COc1ccc2oc3cc(C)[n+]([O-])c(-c4ccc(Cl)cc4)c3c2c1 = -12%, i
Record of Cc1nn(C)c(C)c1S(=O)(=O)N(CC(=O)Nc1nccs1)c1ccc(C(C)C)cc1 = -15%, -1%
